Bioassay records: PubChem BioAssay, Broad Institute
Ran importin – RanGTP/importin-beta interaction disruptors – biochemical, CFP-Ran/YFP-importin-beta FRET, RCC1, cell-free, primary screen (AID 434961); CFP-Ran/YFP-importin-beta FRET, cell-free; stronger effect = higher value; inhibition, %; 7,700 tested, 0.2% active;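 active = more than half of the replicate wells above 15% inhibition; inconclusive = exactly half above it; inactive = fewer than half above it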;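 also: 0% = DMSO wells and 100% inhibition = RanGDP control wells on each plate; stock of unstated strength diluted about 400-fold; mean of two wells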
Numbers without * were called inactive; u = inconclusive. An excerpt; rates above refer to the full screens.

#	SMILES	Ran importin
1	Cc1noc(C)c1NC(=O)Nc1cccc2c1O[C@H](CN(C)S(=O)(=O)c1ccc(Cl)cc1)[C@H](C)CN([C@@H](C)CO)C2=O	6.3
2	CNC[C@H]1OCCCC[C@H](C)Oc2ccc(NS(=O)(=O)c3ccccc3)cc2C(=O)N([C@H](C)CO)C[C@@H]1C	-2.8
3	CNC[C@H]1Oc2c(NC(=O)c3cc(C)nn3C)cccc2C(=O)N([C@H](C)CO)C[C@@H]1C	-1.4
4	COc1ccc(S(=O)(=O)Nc2ccc3c(c2)CC(=O)N([C@@H](C)CO)C[C@H](C)[C@@H](CN(C)S(=O)(=O)c2cn(C)cn2)O3)cc1	-0.6
5	C[C@@H]1CN([C@@H](C)CO)C(=O)c2cc(NC(=O)Nc3ccccc3)ccc2O[C@H]1CN(C)C(=O)Nc1ccc(C(F)(F)F)cc1	2.9
6	C[C@@H]1CN([C@@H](C)CO)C(=O)CCCn2nncc2CO[C@H]1CN(C)Cc1ccncc1	-1.0
7	C[C@@H]1CCCCO[C@H](CN(C)C(=O)Nc2ccc(C(F)(F)F)cc2)[C@H](C)CN([C@@H](C)CO)C(=O)c2cc(NS(C)(=O)=O)ccc2O1	1.9
8	C[C@@H]1CCCCO[C@@H](CN(C)C(=O)Nc2ccccc2)[C@H](C)CN([C@H](C)CO)C(=O)c2cc(NC(=O)c3ccccc3)ccc2O1	0.5

(cont.)
#	SMILES	Ran importin
9	Cc1noc(C)c1S(=O)(=O)Nc1ccc2c(c1)C(=O)N([C@@H](C)CO)C[C@H](C)[C@@H](CN(C)C(=O)NC(C)C)OCCCC[C@H](C)O2	-3.5
10	C[C@@H]1CCCCO[C@@H](CN(C)C(=O)Nc2cccc3ccccc23)[C@@H](C)CN([C@H](C)CO)C(=O)c2cc(N(C)C)ccc2O1	-3.3
11	CC(C)NC(=O)N(C)C[C@H]1OCCCC[C@H](C)Oc2ccc(NS(=O)(=O)c3cccs3)cc2C(=O)N([C@@H](C)CO)C[C@H]1C	-1.1
12	C[C@@H]1CCCCO[C@@H](CN(C)C(=O)CCCN(C)C)[C@H](C)CN([C@@H](C)CO)C(=O)c2cc(NS(=O)(=O)c3cccs3)ccc2O1	-2.4
13	C[C@@H]1CN([C@H](C)CO)C(=O)c2cc(NC(=O)Nc3ccc4c(c3)OCO4)ccc2O[C@@H](C)CCCCO[C@@H]1CN(C)Cc1ccccc1	3.8
14	Cc1noc(C)c1NC(=O)N(C)C[C@@H]1Oc2ccc(NC(=O)Nc3ccc4c(c3)OCO4)cc2C(=O)N([C@H](C)CO)C[C@@H]1C	-7.9
15	C[C@@H]1CN([C@@H](C)CO)C(=O)CCCn2cc(nn2)CO[C@@H]1CN(C)C	-4.5
16	COc1ccccc1CN(C)C[C@@H]1OCc2cn(nn2)CCCC(=O)N([C@H](C)CO)C[C@@H]1C	-1.6

More compounds:
#	SMILES	Ran importin
17	C[C@H](CO)N1C[C@H](C)[C@H](CN(C)C(=O)Nc2ccccc2)Oc2c(NC(=O)c3cnccn3)cccc2C1=O	u
18	CNC[C@H]1OCCCC[C@@H](C)Oc2ccc(NC(=O)Nc3cccc4ccccc34)cc2C(=O)N([C@@H](C)CO)C[C@@H]1C	-3.6
19	COc1ccc(CN(C)C[C@@H]2Oc3c(NC(=O)c4nc5ccccc5s4)cccc3C(=O)N([C@H](C)CO)C[C@H]2C)cc1	1.0
20	C[C@H](CO)N1C[C@H](C)[C@@H](CN(C)C(=O)C2CCCCC2)OCCCC[C@H](C)Oc2ccc(NS(=O)(=O)c3cccs3)cc2C1=O	-2.2
21	CC(C)NC(=O)Nc1ccc2c(c1)C(=O)N([C@H](C)CO)C[C@@H](C)[C@H](CN(C)S(=O)(=O)c1cccs1)OCCCC[C@@H](C)O2	1.0
22	Cc1noc(C)c1NC(=O)N(C)C[C@@H]1Oc2c(NS(C)(=O)=O)cccc2C(=O)N([C@@H](C)CO)C[C@H]1C	0.1
23	Cc1noc(C)c1S(=O)(=O)Nc1ccc2c(c1)CC(=O)N([C@H](C)CO)C[C@H](C)[C@H](CN(C)C(=O)Nc1ccc(C(F)(F)F)cc1)O2	-2.8
24	C[C@@H]1CN([C@H](C)CO)C(=O)c2cccc(NC(=O)Nc3ccc(C(F)(F)F)cc3)c2O[C@H]1CN(C)S(=O)(=O)c1ccc(Cl)cc1	-2.4

Some of these compounds in order of SMILES length, falling.
#	SMILES	Ran importin
7	C[C@@H]1CCCCO[C@H](CN(C)C(=O)Nc2ccc(C(F)(F)F)cc2)[C@H](C)CN([C@@H](C)CO)C(=O)c2cc(NS(C)(=O)=O)ccc2O1	1.9
23	Cc1noc(C)c1S(=O)(=O)Nc1ccc2c(c1)CC(=O)N([C@H](C)CO)C[C@H](C)[C@H](CN(C)C(=O)Nc1ccc(C(F)(F)F)cc1)O2	-2.8
12	C[C@@H]1CCCCO[C@@H](CN(C)C(=O)CCCN(C)C)[C@H](C)CN([C@@H](C)CO)C(=O)c2cc(NS(=O)(=O)c3cccs3)ccc2O1	-2.4
24	C[C@@H]1CN([C@H](C)CO)C(=O)c2cccc(NC(=O)Nc3ccc(C(F)(F)F)cc3)c2O[C@H]1CN(C)S(=O)(=O)c1ccc(Cl)cc1	-2.4
20	C[C@H](CO)N1C[C@H](C)[C@@H](CN(C)C(=O)C2CCCCC2)OCCCC[C@H](C)Oc2ccc(NS(=O)(=O)c3cccs3)cc2C1=O	-2.2
10	C[C@@H]1CCCCO[C@@H](CN(C)C(=O)Nc2cccc3ccccc23)[C@@H](C)CN([C@H](C)CO)C(=O)c2cc(N(C)C)ccc2O1	-3.3
11	CC(C)NC(=O)N(C)C[C@H]1OCCCC[C@H](C)Oc2ccc(NS(=O)(=O)c3cccs3)cc2C(=O)N([C@@H](C)CO)C[C@H]1C	-1.1
14	Cc1noc(C)c1NC(=O)N(C)C[C@@H]1Oc2ccc(NC(=O)Nc3ccc4c(c3)OCO4)cc2C(=O)N([C@H](C)CO)C[C@@H]1C	-7.9
19	COc1ccc(CN(C)C[C@@H]2Oc3c(NC(=O)c4nc5ccccc5s4)cccc3C(=O)N([C@H](C)CO)C[C@H]2C)cc1	1.0
2	CNC[C@H]1OCCCC[C@H](C)Oc2ccc(NS(=O)(=O)c3ccccc3)cc2C(=O)N([C@H](C)CO)C[C@@H]1C	-2.8
17	C[C@H](CO)N1C[C@H](C)[C@H](CN(C)C(=O)Nc2ccccc2)Oc2c(NC(=O)c3cnccn3)cccc2C1=O	u
3	CNC[C@H]1Oc2c(NC(=O)c3cc(C)nn3C)cccc2C(=O)N([C@H](C)CO)C[C@@H]1C	-1.4

Other results.
#	SMILES	Ran importin
25	COc1ccc(CN(C)C[C@@H]2Oc3ccc(NC(=O)Nc4cccc5ccccc45)cc3CC(=O)N([C@H](C)CO)C[C@H]2C)cc1	u
26	C[C@@H]1CN([C@H](C)CO)C(=O)c2cccc(NC(=O)c3ccncc3)c2O[C@@H]1CN(C)CC1CC1	1.9
27	Cc1noc(C)c1NC(=O)Nc1ccc2c(c1)C(=O)N([C@@H](C)CO)C[C@@H](C)[C@@H](CN(C)C(=O)NC(C)C)OCCCC[C@@H](C)O2	-6.3
28	C[C@H]1CN([C@@H](C)CO)C(=O)Cc2cc(N(C)C)ccc2O[C@@H]1CN(C)Cc1ccccc1	-1.4
29	CNC[C@@H]1Oc2ccc(NC(=O)Nc3c(C)noc3C)cc2CC(=O)N([C@@H](C)CO)C[C@H]1C	u
30	COc1ccc(CN(C)C[C@H]2Oc3ccc(NC(=O)Cc4cn(C)c5ccccc45)cc3C(=O)N([C@H](C)CO)C[C@H]2C)cc1	-2.1
31	C[C@H](CO)N1C[C@H](C)[C@H](CN(C)Cc2ccc(Cl)c(Cl)c2)Oc2c(NS(=O)(=O)c3cccs3)cccc2C1=O	-1.2
32	CC(C)NC(=O)Nc1ccc2c(c1)C(=O)N([C@H](C)CO)C[C@H](C)[C@H](CN(C)S(=O)(=O)c1cn(C)cn1)OCCCC[C@H](C)O2	-4.0

(list continues)
#	SMILES	Ran importin
33	CNC[C@H]1OCCCC[C@H](C)Oc2ccc(N(C)C)cc2C(=O)N([C@H](C)CO)C[C@H]1C	-2.6
34	C[C@H](CO)N1C[C@H](C)[C@H](CN(C)S(C)(=O)=O)OCCCC[C@H](C)Oc2ccc(NC(=O)Nc3ccccc3)cc2C1=O	u
35	COc1ccc(S(=O)(=O)N(C)C[C@@H]2Oc3ccc(NC(=O)CCCN(C)C)cc3CC(=O)N([C@@H](C)CO)C[C@@H]2C)cc1	-2.7
36	C[C@@H]1CN([C@@H](C)CO)C(=O)c2cccc(NC(=O)C3CCOCC3)c2O[C@H]1CN(C)C	-4.6
37	C[C@H](CO)N1C[C@H](C)[C@@H](CN(C)S(=O)(=O)c2cn(C)cn2)Oc2ccc(NS(=O)(=O)c3cn(C)cn3)cc2CC1=O	0.1
38	C[C@H]1CN([C@@H](C)CO)C(=O)c2cc(NC(=O)C3CC3)ccc2O[C@@H]1CN(C)Cc1ccc(C(F)(F)F)cc1	-2.2
39	C[C@@H]1CN([C@@H](C)CO)C(=O)CCCn2cc(nn2)CO[C@@H]1CN(C)S(=O)(=O)c1ccccc1	4.3
40	C[C@@H]1CN([C@@H](C)CO)C(=O)CCCn2cc(nn2)CO[C@@H]1CN(C)C(=O)OCc1ccccc1	-3.0
41	C[C@@H]1CN([C@@H](C)CO)C(=O)c2cc(NC(=O)NC3CCCCC3)ccc2O[C@@H]1CN(C)Cc1ccc(C(=O)O)cc1	-0.8
42	CNC[C@@H]1Oc2ccc(NC(=O)CCN3CCOCC3)cc2CC(=O)N([C@H](C)CO)C[C@H]1C	3.2

Further records.
#	SMILES	Ran importin
43	COc1ccc(S(=O)(=O)N(C)C[C@H]2Oc3ccc(NC(=O)Cn4cnnn4)cc3C(=O)N([C@H](C)CO)C[C@@H]2C)cc1	2.1
44	C[C@@H]1CN([C@H](C)CO)C(=O)c2cccc(NC(=O)c3ccncc3)c2O[C@@H]1CN(C)C(=O)NC1CCCCC1	0.0
45	C[C@@H]1CN([C@@H](C)CO)C(=O)c2cc(NC(=O)Cc3ccccc3)ccc2O[C@H]1CN(C)C(=O)NC1CCCCC1	0.7
46	C[C@@H]1CCCCO[C@H](CN(C)C(=O)CCC(F)(F)F)[C@@H](C)CN([C@H](C)CO)C(=O)c2cc(NS(=O)(=O)c3cccs3)ccc2O1	11
47	C[C@@H]1CCCCO[C@@H](CN(C)C(=O)Cc2ccccc2)[C@@H](C)CN([C@@H](C)CO)C(=O)c2cc(N(C)C)ccc2O1	5.5
48	C[C@H](CO)N1C[C@H](C)[C@H](CN(C)C(=O)NC2CCCCC2)Oc2ccc(NS(=O)(=O)c3cn(C)cn3)cc2C1=O	-6.1
49	Cc1noc(C)c1NC(=O)N(C)C[C@@H]1Oc2ccc(NC(=O)CCN3CCOCC3)cc2CC(=O)N([C@H](C)CO)C[C@H]1C	-2.3
50	C[C@@H]1CN([C@@H](C)CO)C(=O)c2cccc(NC(=O)c3ccc(-c4nccs4)cc3)c2O[C@H]1CN(C)C(=O)NC1CCCCC1	u
51	CNC[C@H]1Oc2c(NC(=O)Nc3c(C)noc3C)cccc2C(=O)N([C@@H](C)CO)C[C@@H]1C	5.2
52	CNC[C@H]1Oc2ccc(NS(=O)(=O)c3cn(C)cn3)cc2CC(=O)N([C@@H](C)CO)C[C@@H]1C	1.6

2 of these compounds, reformatted.
45) C[C@@H]1CN([C@@H](C)CO)C(=O)c2cc(NC(=O)Cc3ccccc3)ccc2O[C@H]1CN(C)C(=O)NC1CCCCC1
- Ran importin: 0.7
46) C[C@@H]1CCCCO[C@H](CN(C)C(=O)CCC(F)(F)F)[C@@H](C)CN([C@H](C)CO)C(=O)c2cc(NS(=O)(=O)c3cccs3)ccc2O1
- Ran importin: 11

(listing goes on)
#	SMILES	Ran importin
53	Cc1noc(C)c1S(=O)(=O)N(C)C[C@@H]1Oc2ccc(NC(=O)Nc3ccccc3)cc2CC(=O)N([C@@H](C)CO)C[C@H]1C	-1.1
54	C[C@H](CO)N1C[C@H](C)[C@H](CN(C)C(=O)Nc2ccccc2)Oc2ccc(NC(=O)Nc3ccccc3)cc2CC1=O	3.4
55	C[C@@H]1CN([C@H](C)CO)C(=O)c2cccc(NC(=O)c3nc4ccccc4s3)c2O[C@H]1CN(C)Cc1ccncc1	-5.3
56	C[C@H]1CN([C@@H](C)CO)C(=O)CCCn2cc(nn2)CO[C@@H]1CN(C)Cc1ccc(Cl)c(Cl)c1	u
57	CC(C)NC(=O)N(C)C[C@@H]1Oc2ccc(NC(=O)CCC(F)(F)F)cc2C(=O)N([C@@H](C)CO)C[C@@H]1C	1.6
58	COc1ccc(CN(C)C[C@@H]2Oc3c(NS(=O)(=O)c4ccc(OC)cc4)cccc3C(=O)N([C@@H](C)CO)C[C@@H]2C)cc1	8.7
59	C[C@@H]1CN([C@@H](C)CO)C(=O)CCCn2cc(nn2)CO[C@@H]1CN(C)C(=O)Nc1cccc(Oc2ccccn2)c1	u
60	CC(C)NC(=O)Nc1cccc2c1O[C@@H](CN(C)Cc1ccc(Oc3ccccc3)cc1)[C@@H](C)CN([C@@H](C)CO)C2=O	-0.1
61	COc1ccc(S(=O)(=O)N(C)C[C@H]2Oc3c(NS(=O)(=O)c4ccccc4)cccc3C(=O)N([C@H](C)CO)C[C@@H]2C)cc1	1.0
62	C[C@H](CO)N1C[C@H](C)[C@H](CN(C)Cc2ccccc2)OCCCC[C@H](C)Oc2ccc(NS(=O)(=O)c3ccccc3)cc2C1=O	-1.5
63	C[C@H](CO)N1C[C@H](C)[C@@H](CN(C)C)OCCCC[C@H](C)Oc2ccc(NC(=O)Cc3ccccc3)cc2C1=O	-2.7
64	C[C@@H]1CCCCO[C@@H](CN(C)C(=O)Nc2ccc(C(F)(F)F)cc2)[C@@H](C)CN([C@H](C)CO)C(=O)c2cc(NS(C)(=O)=O)ccc2O1	-1.6
